# Compound activity (PubChem BioAssay)
# Cruzain Triton: blocks cruzain activity in presence of Triton detergent; P25779; purified cruzain, Z-FR-AMC fluorescence, 0.01% Triton; Potency, µM, for inactives: max response, negative = inhibition, usual class: inhibitors; actives 0.43% (n = 200,000);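 note: plate controls were neutral wells for no effect and buffer without enzyme for full effect; nearly all actives have a fitted effect of over 40% in size; top concentration of the series not given in the record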
# Target sequence (P25779 123-467 limits assumed): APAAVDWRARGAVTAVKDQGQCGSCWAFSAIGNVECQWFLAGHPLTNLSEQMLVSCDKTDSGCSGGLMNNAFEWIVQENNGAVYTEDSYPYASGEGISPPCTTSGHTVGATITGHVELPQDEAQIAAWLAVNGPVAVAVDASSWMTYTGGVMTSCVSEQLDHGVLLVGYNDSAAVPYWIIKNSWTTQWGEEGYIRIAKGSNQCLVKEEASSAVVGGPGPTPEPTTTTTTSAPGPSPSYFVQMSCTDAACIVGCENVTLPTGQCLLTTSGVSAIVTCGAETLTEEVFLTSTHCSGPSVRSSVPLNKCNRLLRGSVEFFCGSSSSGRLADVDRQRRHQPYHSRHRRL
#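 Cysteine protease activity tested under reducing, mildly acidic conditions (100 mM sodium acetate pH 5.5, 5 mM DTT) plus 0.01% Triton X-100. Cruzain 1.5 nM; substrate Z-FR-AMC 2 uM; 15 min compound preincubation at room temperature.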
# LASV entry inh: blocks Lassa virus binding to or entry into cells; actives 1.2% (n = 300,000); Potency, µM (doses to about 37.9 µM), without a hit: at the highest dose activity change, negative = inhibition, hits mostly inhibitors; Lassa virus pseudotype entry inhibition, cell reporter; control for the full effect not named in the record; active means well fitted inhibition curve with a large enough effect; inconclusive means small, poorly fitted or top-dose-only effect, or effect the other way; inactive means flat fitted curve, though single readings scatter; tested in HEK293 cells; note: % is set by controls: 0 for no effect and ±100 for the full control effect; nearly all actives have a fitted effect of over 50% in size; luciferase read-out
# SARS PLpro yeast: SARS-CoV PLP inhibition in yeast; actives 0.19% (n = 330,000); AID 485353; Potency, µM (series often up to 32.9 µM), inactives show at the highest dose activity, positive = growth rescue; S. cerevisiae expressing SARS-CoV PLpro, growth rescue; control for the full effect not named in the record; active means well fitted rising curve with a large enough effect; inconclusive means small, poorly fitted or top-dose-only effect; inactive means no such curve, though single readings can be large or run the other way; note: 0% is about no effect; nearly all actives have a fitted effect of over 55% in size; growth read by luminescence after 48 h
# Cruzain noTriton: blocks cruzain activity in detergent-free assay | P25779 | purified cruzain, Z-FR-AMC fluorescence, no detergent | Potency, µM, for the others: max response, negative = inhibition, hits mostly inhibitors | actives 2.3% (n = 200,000);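 note: plate controls were enzyme without inhibitor for no effect and buffer without enzyme for full effect; nearly all actives have a fitted effect of over 40% in size; top concentration of the series not given in the record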
#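 Purified cruzain at 1.5 nM, pre-incubated 15 min with compound at room temperature in 100 mM sodium acetate pH 5.5, 5 mM DTT, 0.00005% Triton X-100. Reaction started with 2 uM Z-FR-AMC; AMC fluorescence increase over 60 s gives rate.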
# RE007 growth inh: less growth of the S. pombe RE007 Vpr strain; S. pombe RE007 Vpr strain, BacTiter-Glo ATP luminescence, 24 h; control for the full effect not named in the record; AID 651644; Potency, µM (doses to about 92.2 µM), for the others: at the top dose activity change, negative = less growth; actives 0.21% (n = 360,000); active = well fitted falling curve with a large enough effect; inconclusive = small, poorly fitted or top-dose-only effect; inactive = no such curve, though single readings can be large or run the other way;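 note: % is set by controls: 0 for no effect and ±100 for the full control effect; nearly all actives have a fitted effect of over 50% in size; the assay follows cell death caused by Vpr and the record does not say whether a fall means rescue or toxicity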
#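 Fission yeast RE007 carrying one integrated HIV-1 vpr copy, seeded at OD 0.01 in PMG+AL medium with 23 nL pinned compound. Grown 24 h at 30 degrees; viability read by BacTiter-Glo luminescence after 5 min.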
# Marburg entry inh: blocks Marburg virus binding to or entry into cells; actives 1.8% (n = 300,000); Marburg virus pseudotyped entry inhibition, cell reporter; control for the full effect not named in the record; about a third of the inactives were read at about 46 µM; Potency, µM (series often up to 37.8 µM), for inactives: at the top dose activity change, negative = inhibition, usual class: inhibitors; active = well fitted inhibition curve with a large enough effect; inconclusive = small, poorly fitted or top-dose-only effect, or effect the other way; inactive = flat fitted curve, though single readings scatter; tested in HEK293 cells; about a fifth of its hits are not listed in these tables; note: % is set by controls: 0 for no effect and ±100 for the full control effect; luciferase read-out
# StopGo reporter: FMDV 2A StopGo reporter, luciferase signal; human cells with a luciferase reporter of 2A StopGo recoding; control for the full effect not named in the record; Potency, µM (highest dose often 57.9 µM), inactives show at the highest dose signal change, negative = less light; actives 1.2% (n = 410,000); AID 1159524; active = well fitted falling curve with a large enough effect; inconclusive = small, poorly fitted or top-dose-only effect; inactive = no such curve, though single readings can be large or run the other way; tested in HEK293T cells; note: % is set by controls: 0 for no effect and ±100 for the full control effect; nearly all actives have a fitted effect of over 45% in size; luciferase light after 4 h
# NS1 function inh: blocks influenza NS1 protein function; S. cerevisiae slowed by influenza A NS1, growth recovery by OD600; Potency, µM (series often up to 46.1 µM), for the others: at the top dose activity, positive = more growth; actives 0.4% (n = 270,000); active means well fitted rising curve with a large enough effect; inconclusive means small, poorly fitted or top-dose-only effect; inactive means no such curve, though single readings can be large or run the other way; note: nearly all actives have a fitted effect of over 50% in size
#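 Growth recovery, yeast-based: influenza A NS1 expressed in S. cerevisiae causes slow growth, and suppressors are detected by OD600. The parent strain without NS1 is used as positive control.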
# An asterisk follows results filed as active; u = inconclusive; x = no result given; [ ] = another dose, or the depositor's remark. Unless noted, calls come from the whole dose curve; as a rule, active = well fitted curve in the direction sought with a large enough effect; inconclusive = small, poorly fitted or top-dose-only effect, or another doubt; inactive = no such curve, though single readings can be large; an effect the other way counts as inactive or inconclusive. Potency is the fitted concentration of half-maximal effect. Hits appear at their usual frequency. About 4.7% of those tested had a hit in this group.
SMILES,Cruzain Triton,LASV entry inh,SARS PLpro yeast,Cruzain noTriton,RE007 growth inh,Marburg entry inh,StopGo reporter,NS1 function inh
CCOC(=O)c1nn(-c2cccc(OC)c2)c2nc(Nc3ccccc3)cc(=O)n12,-6.0%,-7%,4%,u,-23%,16%,-29%,-7%
O=C(COC(=O)c1cc(=O)[nH]c(=O)[nH]1)Nc1ccccc1F,x,-16%,u,x,5%,12%,7%,x
COc1cccc(-c2cc(C(=O)Nc3cnn(Cc4ccc(Cl)cc4Cl)c3)no2)c1,2.3%,u,x,-23%,x,-7%[46.1 µM],-12%,x
CCC(=O)N1c2ccc(S(=O)(=O)CCC(=O)NCc3cccc(OC)c3)cc2CC1C (stereo not given),-1.3%,2%[46.1 µM],x,-14%,x,3%[46.1 µM],3%,x
CC(=O)Nc1ccc(NC(=O)c2cc(C3CC3)nc3c2cnn3C(C)C)cc1,x,u,7%,x,-18%,2%[46.1 µM],-29%,x
CC(C)n1c(SCC(=O)Nc2ccccc2N2CCCCC2)nc2c1c(=O)n(C)c(=O)n2C,-7.8%,-27%,7%,u,-3%,u,x,-48%
O=C(c1ccc(OCC2CCCO2)cc1)N1CCc2ccccc2C1 (stereo not given),x,-5%,0%,x,-9%,24%[46.1 µM],43%[activator],x
O=C(CN1CCOc2ccccc21)NCc1ccco1,1.7%,x,-17%,-3%,-2%,x,-4%,u
CCC(=O)Nc1cc(C(=O)OCC(=O)c2ccccc2)ccc1C,-4.2%,10%,1%,-1%,22%,-15%,-6%,-7%
O=C(c1ccc2noc(-c3ccccc3)c2c1)N1CCN(c2ccccc2)CC1,x,-7%,-5%,x,2%,u,-17%,x
Cc1ccc(/C=C2/N=C(c3ccccc3)NNC2=O)cc1,x,1%,0%,x,-6%,-1%[46.1 µM],3%,-7%
CCOc1ccc(NC(=O)NCCCN2CCN(c3ccc(F)cc3)CC2)cc1,-2.8%,-14%[46.1 µM],x,5%,x,u,-6%,x
CCOc1ccc2nc(SC3CC(=O)N(c4ccccc4)C3=O)sc2c1 (stereo not given),-5.8%,-28%,-2%,3%,-14%,1%,17%,-34%
COc1ccccc1-c1nnc(C2CCN(C(=O)c3ccc(C)cc3)CC2)o1,-0.8%,4%[46.1 µM],x,3%,x,u,2%,x
O=C1C=CCCC1,3.8%,x,-2%,-1%,8%,x,0%,x
CCCC(CCC)=NNc1ccc(S(=O)(=O)Nc2ccccc2OC)cc1[N+](=O)[O-],-8.3%,u,10%,-22%,3%,u,-3%,-7%
CCOc1ccc(NC(=O)N2CC=C(n3c(=O)[nH]c4ccccc43)CC2)cc1,-3.8%,-22%,-2%,-5%,8%,u,u,-3%
COc1cc2cc(CN(C(=O)Nc3ccccc3)C3CCCC3)c(=O)[nH]c2cc1OC,-5.2%,-17%,-2%,u,-11%,-12%,-33%,-19%
O=C(NNc1ccccn1)C(=O)NNS(=O)(=O)c1ccc(Cl)cc1,5.0%,-1%,6%,8%,8%,3%,u,-6%
CCOc1nc(C)ccc1-c1noc(-c2ccncc2)n1,-0.7%,14%,-3%,0%,-25%,-21%,44%[activator],-25%
COc1cccc(C(C(=O)NC2CCCC2)N(C(=O)c2ccco2)c2ccccc2)c1OC (stereo not given),x,x,1%,x,-6%,u,26%,10%
COc1ccc(CCNC(=O)c2ccc(Br)cc2)cc1,x,4%[46.1 µM],5%,x,3%,-13%[46.1 µM],3%,-5%
O=C(/C=C/c1cccs1)N1CCC2(CC1)Oc1ccc(F)cc1C(=O)C21CC(c2ccccc2)=NO1 (stereo not given),x,x,1%,x,18%,x,-10%,9%
CC(=O)Nc1ccc(NC(=O)Cn2cnc3c(nnn3Cc3ccc(F)cc3)c2=O)cc1,x,x,0%,x,9%,x,-23%,-1%
OC(CNCc1cccc(Cl)c1)c1ccccc1 (stereo not given),x,-2%,1%,x,-11%,u,-15%,0%
O=C(Nc1cccnc1)c1cccc(S(=O)(=O)N2CCOCC2)c1,2.9%,-3%,0%,5%,1%,-8%,2%,-2%
CC(C)C(=O)NNC(=O)c1csc(-c2cccs2)n1,x,12%[46.1 µM],2%,x,7%,8%[46.1 µM],-14%,4%
Cc1cc(NC(=O)CSc2ccc3c(c2)OCCO3)no1,-0.2%,12%,2%,-1%,7%,0%,-11%,-6%
C=C(C)C1Cc2c(C)nn(-c3ccccn3)c2C1 (stereo not given),2.9%,11%,8%,1%,-20%,14%,2%,3%
CC(=O)C1=C(C)NC(SCC(=O)c2ccc(F)cc2)=C(C#N)C1c1ccco1 (stereo not given),-17%,-11%,-4%,-17%,-12%,u,x,-68%
COc1cc(/C=N/n2cnn(Cc3ccccc3Cl)c2=S)cc(OC)c1OC,x,-14%,-3%,x,-24%,16%[46.1 µM],u,x
CCOC(=O)CCc1c(C)n[nH]c1C,x,13%[46.1 µM],-1%,x,-5%,-1%[46.1 µM],1%,x
COc1cc(NS(=O)(=O)c2ccc(NC(=S)NC(=O)c3ccco3)cc2)nc(OC)n1,x,x,0%,x,-1%,x,86%[activator],5%
O=C(O)c1ccc(NS(=O)(=O)c2cc(C(=O)O)ccc2Br)cc1,-3.2%,16%,-9%,-13%,-5%,1%,13%,-3%
CCOC(=O)COc1cc(OCC(=O)OCC)c2c(=O)cc(-c3ccccc3)oc2c1,-3.1%,26%,9%,u,-2%,8%,-7%,-5%
O=C(NCc1ccccc1Cl)C1CCCN(S(=O)(=O)c2cnc[nH]2)C1 (stereo not given),1.8%,x,11%,6%,-5%,x,-9%,u
Cn1ccnc1CC(O)(c1ccccc1)c1ccccc1,x,u,1%,x,-5%,-9%[46.1 µM],-10%,1%
CCN1CCN(Cc2c(O)ccc3oc(C)c(C(=O)Nc4cccc(Cl)c4C)c23)CC1,-2.9%,-4%[46.1 µM],x,-28%,x,u,-17%,x
O=C(NC1CC(=O)N(c2ccc(F)cc2)C1)C1CCCC1 (stereo not given),1.5%,13%[46.1 µM],x,-5%,x,x,-8%,x
O=C(NC(Cc1ccccc1)C(=O)O)OCC1c2ccccc2-c2ccccc21 (stereo not given),x,16%[46.1 µM],0%,x,-6%,6%[46.1 µM],21%,7%
CNS(=O)(=O)c1cc(C(=O)OCC(=O)NC2CCCc3ccccc32)ccc1Cl (stereo not given),-5.6%,6%,9%,-7%,9%,-1%,-1%,-5%
CC(C)NS(=O)(=O)c1ccc(OCC(=O)N2CCN(c3ccccc3)CC2)cc1,x,-1%[46.1 µM],1%,x,-18%,-2%[46.1 µM],-1%,-7%
COC(=O)C(O)(c1cn(C)c2ccccc12)C(F)(F)F (stereo not given),0.3%,u,-6%,-4%,2%,-10%,-8%,-6%
Cc1ccc(C)c(NC(=O)C(c2ccccc2)N2CCOCC2)c1 (stereo not given),x,0%,1%,x,23%,u,45%[activator],-4%
Cc1cccc(Cl)c1NC(=O)N1CCCN(c2ncccc2[N+](=O)[O-])CC1,x,2%,2%,x,-15%,1%,-14%,-1%
Cc1onc(-c2c(F)cccc2Cl)c1C(=O)Nc1nnc(C2CC2)s1,-9.7%,-8%,3%,1%,-9%,1%,-18%,5%
Cc1ccc(N=Nc2c(C)[nH]n(-c3ccccc3)c2=O)cc1,x,x,-1%,x,1%,x,25%,0%
Cn1nc(C(=O)NCc2ccc(F)cc2)c2c1-c1ccccc1SC2,-5.8%,u,x,2%,x,u,13%,x
CCCN(C(=O)c1cc2c(=O)n(CC)c3ccccc3c2s1)c1ccccc1F,-0.3%,3%[46.1 µM],x,u,x,-16%[46.1 µM],-27%,x
CCOC(=O)CSc1n[nH]c(-c2ccco2)n1,5.3%,x,-12%,-1%,-19%,x,-14%,-6%
CCCN1C2CCCC1CC(NC(=O)c1ccc(OC)cc1)C2 (stereo not given),x,x,1%,x,3%,x,-8%,3%
Cc1ccc(/C=N/NC(=O)CSc2nnc(-c3ccccc3)n2-c2ccc(Cl)cc2)o1,-9.9%,-9%,8%,6%,-10%,-2%,-14%,7%
BrC(/C=N/N1CCN(Cc2ccccc2)CC1)=C/c1ccccc1,x,u,-1%,x,-25%,-7%[46.1 µM],u,-37%
CCN(Cc1nc2cc(Cl)ccc2c(=O)[nH]1)C(=O)c1cc2c(s1)CCCCC2,x,-10%,0%,x,-20%,u,2%,x
CC(C(=O)Nc1cccnc1)n1cc([N+](=O)[O-])cn1 (stereo not given),x,0%,-3%,x,22%,19%,-9%,x
O=C(CN1C(=O)COc2ccccc21)N1CCN(c2ccccc2F)CC1,-0.1%,1%,7%,-1%,-5%,7%,6%,-3%
CCCCOc1ccc(CN2CCC(O)CC2)cc1,5.1%,0%,-13%,-10%,-13%,28%,40%[activator],-19%
CCCN(CCC)CCCNC(=O)c1sc2nc3n(c(=O)c2c1C)CCC3,-3.7%,7%[46.1 µM],x,-3%,x,x,-16%,x
COCCn1c(=O)[nH]c2cc(C(=O)NCC3CCCO3)ccc2c1=O (stereo not given),-1.5%,0%,1%,-3%,18%,9%[46.1 µM],24%,4%
COc1ccc(Br)cc1S(=O)(=O)n1c([N+](=O)[O-])cnc1C,x,x,3%,x,3%,x,-14%,6%

# Quoted at random: 2 records from the list, in no set order.
SMILES,Cruzain Triton,LASV entry inh,SARS PLpro yeast,Cruzain noTriton,RE007 growth inh,Marburg entry inh,StopGo reporter,NS1 function inh
O=C(COC(=O)c1cc(=O)[nH]c(=O)[nH]1)Nc1ccccc1F,x,-16%,u,x,5%,12%,7%,x
OC(CNCc1cccc(Cl)c1)c1ccccc1 (stereo not given),x,-2%,1%,x,-11%,u,-15%,0%

# (further entries)
SMILES,Cruzain Triton,LASV entry inh,SARS PLpro yeast,Cruzain noTriton,RE007 growth inh,Marburg entry inh,StopGo reporter,NS1 function inh
CCN(CC)S(=O)(=O)c1ccccc1/C=N\O,-0.7%,23%,0%,-1%,2%,23%,u,-4%
O=C1c2ccccc2C(=O)N1CCc1csc(-c2cccc(Cl)c2)n1,-2.1%,-6%,-5%,-2%,-16%,3%,u,-3%
CCOc1ccc(-c2noc(CCCC(=O)NC3CCCCC3)n2)cc1OC,x,x,2%,x,8%,u,-10%,-2%
COc1ccc(NC(=O)C(=O)c2cn(CC(=O)N3CCOCC3)c3ccccc23)cc1OC,x,-14%[46.1 µM],1%,x,0%,18%[46.1 µM],-3%,-13%
